Screening results: PubChem, National Center for Advancing Translational Sciences (NCATS)
PINK1 modulator: A Quantitative High throughput Screen to Identify Chemical Modulators of PINK1 Expression; PINK1 immunofluorescence, high-content cytometry, 24 h; Potency, µM (titrated, usually from 76.6 µM), for the others: at the top dose activation (PINK1 increase), usual class: activators; hit rate 0.2% among 410,000; active = well fitted activation curve with a large enough effect; inconclusive = small, poorly fitted or top-dose-only effect; inactive = flat fitted curve, though single readings scatter; cell line not stated here;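 note: potency is the fitted concentration of half-maximal effect; % of control where 0% means no effect; nearly all actives have a fitted effect of over 65% in size; a mitochondrial uncoupler was the plate control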
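A stable cell line was treated with compounds at 5 concentrations for 24 hours, with CCCP as control. PINK1 levels and mitochondrial localization were measured by immunofluorescence with mitochondrial, cell and nuclear markers after fixation, read by laser-scanning cytometry.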
D2 potentiator: Beta-Arrestin HTS for Positive Allosteric Modulators of the Human D2 Dopamine Receptor: Potentiators; D(2) dopamine receptor (Homo sapiens), P14416; DiscoveRx D2 beta-arrestin cells, luminescence, 90 min; 100% = 57 uM dopamine signal; potentiation, % (test concentration not listed); hit rate 0.23% among 360,000; active = potentiation of 50% or more; inconclusive = 30% to 50%; inactive = 30% or less;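 note: compound concentration not given in the record; tested on top of an EC20 dose of dopamine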
Target sequence (P14416 whole entry, looked up): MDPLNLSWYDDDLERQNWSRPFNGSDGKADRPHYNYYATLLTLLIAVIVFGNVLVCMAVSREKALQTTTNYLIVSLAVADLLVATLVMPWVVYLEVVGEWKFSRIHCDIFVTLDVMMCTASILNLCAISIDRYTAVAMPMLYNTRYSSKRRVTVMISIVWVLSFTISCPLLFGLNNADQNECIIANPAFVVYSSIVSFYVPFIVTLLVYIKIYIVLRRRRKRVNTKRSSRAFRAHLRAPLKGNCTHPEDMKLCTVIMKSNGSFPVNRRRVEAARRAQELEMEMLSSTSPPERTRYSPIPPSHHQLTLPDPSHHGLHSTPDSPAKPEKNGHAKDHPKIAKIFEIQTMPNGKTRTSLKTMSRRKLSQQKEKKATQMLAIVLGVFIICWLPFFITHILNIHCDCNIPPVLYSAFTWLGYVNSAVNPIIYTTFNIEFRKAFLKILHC
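PathHunter D2 cells, attached overnight at 37 deg C, received compound in DMSO plus dopamine at EC20 (50 nM final) for 90 min at 37 deg C. Beta-arrestin recruitment was read as luminescence after 1 h with detection reagent at ambient temperature.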
Six1-Eya2 inh: qHTS Assay for Inhibitors of the Six1/Eya2 Interaction; Homeobox protein SIX1 (Homo sapiens) + Protein phosphatase EYA2 (Homo sapiens), …; AlphaScreen GST-Six1/His-Eya2 binding, biochemical; hits give low values; control for the full effect not named in the record; activity change, % (concentration not given with the values); hit rate 0.56% among 360,000; AID 651725, 2012; in the data active = activity change below about -65%; inconclusive = about -30% to -65%; inactive = above about -30%; note: % is set by controls: 0 for no effect and ±100 for the full control effect
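GST-Six1 + His-Eya2 (5X stock: 250/500 nM); Tris pH 8.0, 300 mM NaCl, 0.05% BSA, 0.02% Tween 20; GSH donor/Ni acceptor beads; 1 h 37 °C dark; AlphaScreen readout.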
TRPV1 potentiator: HTS Assay for Compounds that Act as Potentiators of the Vanilloid Receptor 1. Transient receptor potential cation channel subfamily V member 1 (Homo sapiens), Q8NER1. TRPV1-expressing cells, Fluo-8 calcium influx, capsaicin EC20 potentiation; host cell line not named in the record; control for the full effect not named in the record. potentiation, % at 8.33 µM. hit rate 0.02% among 320,000; active means potentiation above 80%; inconclusive means 30% to 80%; inactive means below 30%; note: 0% is about no effect
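Cells expressing TRPV1 were dye-loaded with Fluo-8 and read kinetically: 10 s baseline, 3 min after compound (agonist portion), then 2 min after EC20 capsaicin (allosteric enhancer portion). Calcium-bound dye fluorescence at 480/520 nm.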
Sfp inh: qHTS Assay for Inhibitors of Bacillus subtilis Sfp phosphopantetheinyl transferase (PPTase); hit rate 3.5% among 310,000; 4'-phosphopantetheinyl transferase ffp (Bacillus subtilis), Q9F4F7; Biochemical Sfp PPTase activity, qHTS; Potency, µM, for the others: max response, negative = inhibition, most hits filed as inhibitors; AID 1490, 2009; active = well fitted inhibition curve with a large enough effect; inconclusive = small, poorly fitted or top-dose-only effect, or another doubt; inactive = no such curve, though single readings can be large or run the other way;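 note: the enzyme is Sfp with the accession as filed and its product quenches rhodamine fluorescence; potency is the fitted concentration of half-maximal effect; 0% = enzyme reaction without inhibitor and -100% = no enzyme wells; top concentration of the series not given in the record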
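Fluorescence-quenching assay: 15 nM Sfp-PPTase preincubated 15 min at room temperature with compound, then 5 uM rhodamine-CoA and 12.5 uM BHQ-2-labelled YbbR peptide added. Fluorescence (ex 525/em 598 nm) read at start and after 30 min; difference gives rate.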
CtBP-E1A blk: qHTS Assay for Inhibitors of the CtBP/E1A Interaction; CtBP / adenovirus E1A interaction (AlphaScreen); AlphaScreen GST-E1A/His-CtBP binding, 1536-well; hits give low values; control for the full effect not named in the record; activity change, % (test concentration not listed); hit rate 0.49% among 340,000; AID 651724, 2012; in the data active means activity change below about -65%; inconclusive means about -30% to -65%; inactive means above about -30%; note: % is set by controls: 0 for no effect and ±100 for the full control effect; compound concentration not given in the record
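AlphaScreen with 125 nM GST-E1A and 125 nM His-CtBP (5X stocks) in Tris pH 8.0, 300 mM NaCl, BSA, Tween 20, TCEP. Compounds preincubated 2 h at 37 deg C, then glutathione donor/nickel acceptor beads added for 1 h at 37 deg C in dark.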
D2 agonist: Beta-Arrestin HTS for Positive Allosteric Modulators of the Human D2 Dopamine Receptor: Agonists; DiscoveRx PathHunter D2 beta-arrestin, luminescence, 90 min; 100% = 57 uM dopamine signal; activation, % (test concentration not listed); hit rate 0.084% among 360,000; in the data active = activation above about 40%; inconclusive = about 15% to 40%; inactive = below about 15%; note: compound concentration not given in the record; the text of the record calls up to 30% inactive
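Agonist mode: compounds alone added to overnight-plated D2 PathHunter cells for 90 min at 37 C, with 57 uM final dopamine (EC100) defining full response. Beta-arrestin recruitment detected by chemiluminescent reagent, read after 1 h at ambient temperature.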
Active calls of the source: *; u = inconclusive; x = no result given; [ ] = remark or other dose.

no.	SMILES	CtBP-E1A blk	TRPV1 potentiator	Six1-Eya2 inh	Sfp inh	D2 potentiator	PINK1 modulator	D2 agonist
1	O=C(NCCCN1CCCCCC1)c1cc2c(=O)oc3ccccc3c2s1	-15	26	-23	-21%	-6	-1.2%	2.0
2	O=C(C1CCN(S(=O)(=O)c2ccc(Br)s2)CC1)N1CCCCC1	8	-49	6	6%	-6	1.2%	-2.5
3	CCOc1ccccc1-n1cnc2cc(C(=O)NCc3ccco3)ccc21	-2	25	-10	-5%	-35	2.0%	-0.8
4	Nc1cc(N)nc(SCC(=O)N2CCCCC2)n1	-7	10	4	-3%	13	-0.2%	0.0
5	CNNC(=S)Nc1cccc(C(F)(F)F)c1	0	-1	3	-5%	-3	-0.4%	1.4
6	COc1ccc(C(=O)NC(=S)NNC(=O)Cc2cccs2)cc1	-1	-1	-3	12%	-20	3.8%	-3.7
7	CCn1c(-c2csc3ccccc23)n[nH]c1=S	2	8	9	-5%	-15	0.1%	3.2
8	NC(=O)CCCSc1nc2ccccc2[nH]1	13	1	6	11%	-3	0.7%	-1.0
9	COc1ccc(OC)c(S(=O)(=O)N2CCC(C(=O)NC3CCCCC3)CC2)c1	-1	4	1	-5%	-1	-1.2%	-1.3
10	COc1ccc(OC)c(C(=O)c2ccc(C(=O)Nc3ccc(NC(C)=O)cc3)cc2)c1	1	1	28	-28%	-8	3.6%	-1.8
11	COc1ccccc1-c1nnc(NC(C)=O)s1	10	u	1	-10%	-11	4.1%	-5.6
12	O=C(/C=C/c1ccccc1)c1c[nH]c2ccccc12	-21	-17	0	5%	-27	-1.3%	-1.4
13	COc1cc2sc3ccc(C#CC4(O)CCCCC4)cc3c(=O)c2cc1OC	-3	x	5	x	-3	1.1%	-2.9
14	CN(C(=O)COc1ccc(Cl)cc1Cl)C1(C)CCS(=O)(=O)C1 (stereo unspecified)	-2	6	8	x	-2	9.1%	-2.5
15	O=c1oc2cc(Br)ccc2n1Cc1ccccc1	14	-11	19	21%	-3	-1.5%	7.8
16	O=C(CCN1C(=O)/C(=C/c2cccs2)SC1=S)Nc1ccc(O)cc1	-3	-2	-1	19%	-6	u	5.0
17	O=C(N/N=C/c1c[nH]c2ccccc12)c1ccc(Cl)cc1	-25	-6	0	1%	-10	7.1%	0.4
18	O=C(Cc1ccc([N+](=O)[O-])cc1)NCc1cccnc1	2	-8	-1	2%	-13	-0.5%	-1.9
19	Cn1c(SCc2cccc(C#N)c2)nc2ccccc2c1=O	5	16	10	-4%	4	0.0%	-2.1
20	Cn1c(SCC(=O)NCCc2ccccc2)nnc1C1CCCCC1	3	-7	4	5%	-7	3.8%	6.3
21	Fc1ccc(-c2nc3ccc(Cl)cn3c2Cc2ccsc2)cc1	-6	x	-1	x	-6	0.4%	-5.9
22	CCOC(=O)c1c(C)[nH]c(C)c1S(=O)(=O)N1CCN(c2ccc(F)cc2)CC1	x	-1	-3	10%	-18	-0.3%	-0.7
23	O=C(Nc1nncs1)c1ccc(S(=O)(=O)c2ccccc2)cc1	-6	7	-9	10%	-9	4.0%	0.7
24	CCc1ccc(C(c2c(C)nn(-c3ccccc3)c2N)c2c(C)nn(-c3ccccc3)c2N)cc1	1	9	-24	-5%	-10	9.7%	-3.5
25	COc1ccccc1C1=NOC(C)(c2sc(-c3ccccc3)nc2C)C1 (stereo unspecified)	-10	x	14	x	-1	-0.4%	-1.5
26	O=C(O)CC(NC(=O)C12CC3CC(CC(C3)C1)C2)c1ccc(OC2CCCC2)cc1 (stereo unspecified)	4	15	6	15%	-9	2.2%	-4.5
27	Cc1ccc(C2=NOC(C)(c3nnc(-c4ccc(Cl)cc4)o3)C2)cc1 (stereo unspecified)	1	-1	8	-7%	3	0.5%	1.0
28	COc1cccc(/C=C/C(=O)OCC(=O)NCc2ccc(Cl)cc2)c1	-10	-14	12	20%	-7	4.7%	-3.8
29	O=C(NN1CCOCC1)c1c(-c2ccccc2)sc2ccccc12	5	x	8	x	-2	0.4%	-1.4
30	CCn1c2ccccc2c2cc(NC(=O)COC(=O)c3cc(S(=O)(=O)N4CCCCC4)ccc3Cl)ccc21	1	0	2	4%	-16	-0.6%	-3.5
31	CC1=C(C(=O)Nc2cccc([N+](=O)[O-])c2)C2(CCC(C)CC2)OC1=O (stereo unspecified)	-2	-13	3	-3%	-4	0.7%	-4.4
32	CCOC(=O)C1CCN(CC(O)COCc2ccc3c(c2)OCO3)CC1 (stereo unspecified)	-3	5	2	1%	-2	2.4%	-2.7
33	CN(C)CCn1c(C(=O)O)cc2ccccc21	6	3	-1	2%	-7	0.1%	0.4
34	CCOC(=O)c1cnc(-n2nc(C)cc2C)nc1NCCO	-23	8	-19	2%	-6	8.5%[38.3 µM]	-2.2
35	O=C(CCc1ccccc1)Nc1nc2c(F)cc(F)cc2s1	6	2	3	35µM*	-3	10%	1.0
36	O=C(/C=C/c1cccc([N+](=O)[O-])c1)N1CCN(c2ccc(F)cc2)CC1	-3	-21	-3	-8%	-14	1.3%	1.6
37	CCc1nnc(NC(=O)CN2C(=O)c3ccccc3C2=O)s1	-7	-4	1	0%	-10	u	-1.8
38	CCOc1ccc(NC(=O)c2ccc3c(c2)CCN3S(C)(=O)=O)cc1	0	-24	1	9%	-2	-3.5%	3.1
39	Cc1cc(C)n(-c2cc(N3CCN(C(=O)c4cccc(Br)c4)CC3)ccc2[N+](=O)[O-])n1	-11	-10	-14	-5%	10	-2.0%	-3.0
40	COc1ccc(C(=S)N2CCN(c3ccccc3C)CC2)cc1	x	-9	-16	u	-18	2.5%	-2.4
41	CCOC(=O)CC(=O)CSc1nc(-c2ccc3c(c2)OCO3)cc(C(F)(F)F)c1C#N	-10	9	-10	1%	4	27%[38.3 µM]	2.0
42	COC(CNC(=O)C(=O)NCC1OCCN1C(=O)c1ccc(Cl)cc1)OC (stereo unspecified)	1	11	1	10%	-1	-0.1%	-0.7
43	CCOC(=O)c1nn(-c2ccc(C)cc2)c(C)c1C(C)=O	0	16	-1	-15%	-7	-0.9%	-1.8
44	Cc1ccc(-c2nnn(CC(=O)N(Cc3ccco3)C(C(=O)NC(C)(C)C)c3ccc(C)o3)n2)o1 (stereo unspecified)	7	8	-11	-1%	2	-0.4%	3.1
45	CCn1c(O)c2ccc(C(=O)N=NC(=O)c3cccnc3)cc2c1O	-1	2	3	27%	-4	0.8%[38.3 µM]	-3.0
46	O=C(COCc1cc(-c2ccc3c(c2)OCO3)on1)N1CCCCC1	-1	10	-5	0%	-8	-1.2%	-0.5
47	CC(=O)c1ccc2c(c1)CC(C)C(=O)N2C (stereo unspecified)	7	6	6	6%	-7	4.0%	-4.4
48	Cc1ncc(CN2CCCC(C(=O)Nc3ccc(-c4cscn4)cc3)C2)cn1 (stereo unspecified)	3	8	-11	6%	-6	-0.1%	-0.8
49	CSc1nncc(-c2ccc(F)c(F)c2)n1	4	15	3	9%	-3	3.2%	-2.4
50	CC1CCCCC1NC(=O)c1ccc(NS(=O)(=O)c2ccc3[nH]c(=O)[nH]c3c2)cc1 (stereo unspecified)	2	16	-3	x	-2	3.6%	-1.8
51	CNc1nc2c(Cl)cc(Cl)cc2s1	4	1	10	8%	-6	-0.3%	-2.8
52	O=C(Cc1cccs1)NCc1ccccc1F	5	-5	7	12%	2	2.1%[38.3 µM]	-2.7
53	CN(C)c1ccc(CNC(=O)C2(C)Cc3c(-c4ccc5c(c4)OCO5)ccnc3O2)cc1 (stereo unspecified)	u	x	u	x	3	0.4%	-1.4
54	COc1ccc(OC)c2c(C)cc(N3CCN(C(=O)c4ccc(Cl)cc4)CC3)nc12	-8	-1	-1	u	-6	1.9%[38.3 µM]	-5.6
55	O=C(Cn1c(COc2ccccc2)nc2ccccc21)Nc1cc(Cl)cc(Cl)c1	0	-12	5	-6%	-18	3.4%	-0.9
56	O=C(NC(=S)NCCC1=CCCCC1)c1ccco1	-1	-13	2	-3%	-3	7.2%	-1.1
57	COC(=O)c1ccc(-n2cncn2)c([N+](=O)[O-])c1	1	-8	4	27%	-7	3.0%	-1.9
58	Cc1nnsc1S(=O)c1ccccc1Cl (stereo unspecified)	-6	-14	2	7%	-4	0.9%	-0.7
59	O=C1NC(=O)C(Cc2ccccc2)(c2cccnc2)N1 (stereo unspecified)	-2	0	-5	-11%	-1	-0.3%	0.9
60	O=S1(=O)CC/C(=N\O)c2ccccc21	8	6	3	15%	-13	-0.8%[38.3 µM]	-4.0

Entries of single compounds from above:
O=C(O)CC(NC(=O)C12CC3CC(CC(C3)C1)C2)c1ccc(OC2CCCC2)cc1 (stereo unspecified) in the list: CtBP-E1A blk = 4; TRPV1 potentiator = 15; Six1-Eya2 inh = 6; Sfp inh = 15%; D2 potentiator = -9; PINK1 modulator = 2.2%; D2 agonist = -4.5
Cn1c(SCC(=O)NCCc2ccccc2)nnc1C1CCCCC1 in the list: CtBP-E1A blk = 3; TRPV1 potentiator = -7; Six1-Eya2 inh = 4; Sfp inh = 5%; D2 potentiator = -7; PINK1 modulator = 3.8%; D2 agonist = 6.3

Marked active in Sfp inh (from the list above):
entry	structure	CtBP-E1A blk	Six1-Eya2 inh	Sfp inh	D2 potentiator	PINK1 modulator	D2 agonist
35	O=C(CCc1ccccc1)Nc1nc2c(F)cc(F)cc2s1	6	3	35µM*	-3	10%	1.0

The listing continues:
no.	SMILES	CtBP-E1A blk	TRPV1 potentiator	Six1-Eya2 inh	Sfp inh	D2 potentiator	PINK1 modulator	D2 agonist
61	COc1ccc(C(=O)NC(=S)N2CCNC(=O)C2)cc1Br	x	6	0	-3%	-13	-1.5%	-6.5
62	CCCNS(=O)(=O)c1ccc(OCC(=O)Nc2ccc3c(c2)OCO3)cc1	-5	1	0	-7%	-4	-1.1%	1.2
63	O=c1cc(N2CCCCC2)c(-c2ccccc2)nn1Cc1cccc(Cl)c1	-1	-5	8	35µM*	-6	13%	-1.1
64	COc1cccc(CC2(CO)CCCN(CC3=Cc4cc(Cl)ccc4OC3)C2)c1 (stereo unspecified)	-1	2	-1	3%	-7	9.5%	-1.2

The order is random. Share with any hit: about 3.7%.
